Cruzain noTriton – qHTS Assay for Promiscuous and Specific Inhibitors of Cruzain (without detergent); purified cruzain, Z-FR-AMC fluorescence, no detergent; Potency, µM, for inactives: max response, negative = inhibition, usual class: inhibitors; 2.3% of 200,000 active; AID 1476, 2009; active = well fitted curve in the direction sought with a large enough effect; inconclusive = small, poorly fitted or top-dose-only effect, or another doubt; inactive = no such curve, though single readings can be large; an effect the other way counts as inactive or inconclusive;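 note: plate controls were enzyme without inhibitor for no effect and buffer without enzyme for full effect; nearly all actives have a fitted effect of over 40% in size; top concentration of the series not given in the record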
Target sequence (P25779 123-467 limits assumed): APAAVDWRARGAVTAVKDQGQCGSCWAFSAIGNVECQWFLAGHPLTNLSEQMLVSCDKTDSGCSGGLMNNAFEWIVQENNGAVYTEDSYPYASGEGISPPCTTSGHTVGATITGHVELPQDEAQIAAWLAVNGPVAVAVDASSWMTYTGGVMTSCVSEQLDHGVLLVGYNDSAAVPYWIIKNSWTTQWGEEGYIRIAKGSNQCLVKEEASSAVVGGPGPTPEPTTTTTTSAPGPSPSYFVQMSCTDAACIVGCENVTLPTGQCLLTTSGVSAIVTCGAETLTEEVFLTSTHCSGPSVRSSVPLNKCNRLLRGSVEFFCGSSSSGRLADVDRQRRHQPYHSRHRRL
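Purified cruzain at 1.5 nM, pre-incubated 15 min with compound at room temperature in 100 mM sodium acetate pH 5.5, 5 mM DTT, 0.00005% Triton X-100. Reaction started with 2 uM Z-FR-AMC; AMC fluorescence increase over 60 s gives rate.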
StopGo reporter – High Throughput Screening for Foot and Mouth Disease Virus Antivirals; human cells with a luciferase reporter of 2A StopGo recoding; control for the full effect not named in the record; Potency, µM (doses to about 57.9 µM), without a hit: top-dose signal change, negative = less light; 1.2% of 410,000 active; AID 1159524, 2015; active = well fitted falling curve with a large enough effect; inconclusive = small, poorly fitted or top-dose-only effect; inactive = no such curve, though single readings can be large or run the other way; tested in HEK293T cells; note: % is set by controls: 0 for no effect and ±100 for the full control effect; nearly all actives have a fitted effect of over 45% in size; luciferase light after 4 h
Marburg entry inh – qHTS for inhibitors of binding or entry into cells for Marburg Virus. Marburg virus pseudotyped entry inhibition, cell reporter; control for the full effect not named in the record; about a third of the inactives were read at about 46 µM. Potency, µM (series often up to 37.8 µM), without a hit: top-dose activity change, negative = inhibition, hits mostly inhibitors. 1.8% of 300,000 active; active = well fitted inhibition curve with a large enough effect; inconclusive = small, poorly fitted or top-dose-only effect, or effect the other way; inactive = flat fitted curve, though single readings scatter; tested in HEK293 cells; about a fifth of its hits are not listed in these tables; note: % is set by controls: 0 for no effect and ±100 for the full control effect; luciferase read-out
NS1 inh – qHTS Assay for Inhibitors of Influenza NS1 Protein Function. S. cerevisiae slowed by influenza A NS1, growth recovery by OD600. Potency, µM (series often up to 46.1 µM), for the others: at the top dose activity, positive = more growth. 0.4% of 270,000 active; note: actives are rising curves; nearly all actives have a fitted effect of over 50% in size
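A cell-based growth assay was used: compounds that relieve NS1-induced slow growth of budding yeast raise OD600. Assay medium was yeast nitrogen base with ammonium sulphate and -URA supplement, pH 6.0, with 2% galactose.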
SARS PLpro yeast – qHTS of Yeast-based Assay for SARS-CoV PLP | S. cerevisiae expressing SARS-CoV PLpro, growth rescue; control for the full effect not named in the record | Potency, µM (titrated, usually from 32.9 µM), for the others: at the highest dose activity, positive = growth rescue | 0.19% of 330,000 active; note: 0% is about no effect; nearly all actives have a fitted effect of over 55% in size; growth read by luminescence after 48 h
LASV entry inh – qHTS for Inhibitors of binding or entry into cells for Lassa Virus; Lassa virus pseudotype entry inhibition, cell reporter; control for the full effect not named in the record; Potency, µM (titrated, usually from 37.9 µM), for inactives: top-dose activity change, negative = inhibition, usual class: inhibitors; 1.2% of 300,000 active; AID 540256, 2011; active means well fitted inhibition curve with a large enough effect; inconclusive means small, poorly fitted or top-dose-only effect, or effect the other way; inactive means flat fitted curve, though single readings scatter; tested in HEK293 cells; note: % is set by controls: 0 for no effect and ±100 for the full control effect; nearly all actives have a fitted effect of over 50% in size; luciferase read-out
Cruzain inh Det – qHTS Assay for Promiscuous and Specific Inhibitors of Cruzain (with detergent); purified cruzain, Z-FR-AMC fluorescence, 0.01% Triton; AID 1478, 2009; 0.43% of 200,000 active; Cruzipain (Trypanosoma cruzi), P25779; Potency, µM, inactives show max response, negative = inhibition, most hits filed as inhibitors; active = well fitted curve in the direction sought with a large enough effect; inconclusive = small, poorly fitted or top-dose-only effect, or another doubt; inactive = no such curve, though single readings can be large; an effect the other way counts as inactive or inconclusive;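 note: plate controls were neutral wells for no effect and buffer without enzyme for full effect; nearly all actives have a fitted effect of over 40% in size; top concentration of the series not given in the record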
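Enzyme 1.5 nM, Z-FR-AMC 2 uM, NaOAc 100 mM pH 5.5, DTT 5 mM, Triton X-100 0.01%; 15 min RT compound preincubation; kinetic ex360/em450, 60 s delta.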
RE007 growth inh – qHTS Assay for Inhibitors of the HIV-1 protein Vpr; Potency, µM (titrated, usually from 92.2 µM), for the others: at the top dose activity change, negative = less growth; AID 651644, 2012; S. pombe RE007 Vpr strain, BacTiter-Glo ATP luminescence, 24 h; control for the full effect not named in the record; 0.21% of 360,000 active; active = well fitted falling curve with a large enough effect; inconclusive = small, poorly fitted or top-dose-only effect; inactive = no such curve, though single readings can be large or run the other way;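 note: % is set by controls: 0 for no effect and ±100 for the full control effect; nearly all actives have a fitted effect of over 50% in size; the assay follows cell death caused by Vpr and the record does not say whether a fall means rescue or toxicity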
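Fission yeast strain RE007, carrying one chromosomally integrated HIV-1 vpr copy, was seeded at OD 0.01 in PMG+AL medium with 23 nL pinned compound. After 24 h at 30 °C and 99% humidity, viability was read by BacTiter-Glo luminescence.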
Numbers without * were called inactive; ? = inconclusive; . = no result given; [ ] = dose if it differs, or a comment. Unless noted, calls come from the whole dose curve; as a rule, active means well fitted rising curve with a large enough effect; inconclusive means small, poorly fitted or top-dose-only effect; inactive means no such curve, though single readings can be large or run the other way. Potency is the fitted concentration of half-maximal effect.

SMILES	Cruzain noTriton	StopGo reporter	Marburg entry inh	NS1 inh	SARS PLpro yeast	LASV entry inh	Cruzain inh Det	RE007 growth inh
Cc1cccc(NC(=O)CSc2nnc(CNC(=O)c3ccco3)n2C)c1	.	-7%	16%[46.1 µM]	1%	2%	.	.	10%
CC(C)CCN1CCN(Cc2cccn2-c2ccc(Cl)cn2)CC1CCO (stereo unspecified)	.	-14%	-16%[46.1 µM]	-3%	1%	-21%	.	1%
Cc1cccc(N2CCN(c3ncnc4onc(C)c34)CC2)c1C	-2%	0%	.	.	.	26%[46.1 µM]	-0.9%	.
O=C(CN1C(=O)c2ccccc2Sc2ccc(C(=O)N3CCOCC3)cc21)Nc1ccc(Cl)cc1F	5%	-8%	.	.	.	6%[46.1 µM]	-1.5%	.
CN(CC(=O)NC1CCCCCCC1)S(=O)(=O)c1cccc2cccnc12	-5%	-21%	.	-46%	-4%	.	-0.6%	-22%
O=C(O)C1=C[C@H](c2ccc(C(F)(F)F)cc2)C[C@H](OCc2ccc(CO)cc2)O1	.	-11%	.	1%	-1%	.	.	4%
COc1ccc(C2=NOC(C(=O)Nc3ccc4c(c3)OCO4)C2)cc1 (stereo unspecified)	.	46%[activator]	.	4%	-1%	.	.	14%
CC(C)N1CCN(Cc2ccc(-c3ccccc3)cc2)CC1CCO (stereo unspecified)	.	-17%	?	-3%	-7%	-24%[46.1 µM]	.	-12%
CC(C)CC1=NN(C(=O)c2ccncc2)C(O)(C(F)(F)F)C1 (stereo unspecified)	13%	-2%	12%	15%	-10%	2%	-1.9%	10%
COc1cccc(C(=O)Nc2cnn(C(C)C)c2)c1	.	68%[activator]	-4%	.	2%	-3%	.	-5%
CCc1ccccc1NC(=O)C1CCN(C(=O)N2CC(C)Oc3ccc(Cl)cc32)CC1 (stereo unspecified)	-22%	-10%	.	.	.	?	-5.3%	.
CSc1nn2c(C(F)(F)F)cc(C(F)(F)F)nc2c1C(=O)O	.	13%	?	5%	0%	?	.	10%
O=C(CSc1ccccc1)Nc1cc(Cl)ccc1Oc1ccccc1	-10%	-29%	-25%	-26%	-8%	10%	-1.1%	.
Cn1c(CCNC(=O)C2CCCCC2)nc2cc(NC(=O)c3cccs3)ccc21	.	-4%	-1%[46.1 µM]	.	-1%	7%	.	18%
Cc1ccc(Nc2nc(-c3ccc(F)cc3)cs2)nc1	.	53%[activator]	.	18%	0%	.	.	-19%
Cc1ccc2nc(C(O)C(O)c3nc4ccc(C)cc4[nH]3)[nH]c2c1 (stereo unspecified)	-10%	48%[activator]	-31%	-11%	12%	-29%	2.9%	-1%
Cc1ccc2c(c1)Oc1ccc(NC(=O)CCl)cc1C(=O)N2	.	14µM*	?	.	1%	?	.	-10%
O=[N+]([O-])c1c(-c2cn[nH]c2)n[nH]c1-c1cn[nH]c1	.	0%	-4%[46.1 µM]	11%	-5%	-4%[46.1 µM]	.	1%
CCN1CCN(CCCNC(=O)c2cnn(-c3ccccc3Cl)c2C2CCN(C(=O)OC(C)(C)C)CC2)CC1	2%	-4%	.	.	.	13%[46.1 µM]	0.5%	.
O=C(CSc1n[nH]c(=O)n1Cc1ccco1)c1ccc2c(c1)OCCO2	.	40%[activator]	.	4%	0%	.	.	8%
COc1ccc(CCN2C(=O)CC(NNC(=O)c3ccccc3Br)C2=O)cc1 (stereo unspecified)	3%	-13%	-2%	3%	?	14%	3.0%	28%
CCOc1cc(/C=N/NC(=O)N/N=C/c2ccc(O)c(OCC)c2)ccc1O	.	-27%	7.1µM*	.	.	?	.	?
COC(=O)c1ccncc1C(=O)Nc1ccc(Oc2ncc(C(F)(F)F)cc2Cl)cc1	.	2%	11%[46.1 µM]	-5%	1%	12%[46.1 µM]	.	-5%
CCOC(=O)CN(C(=O)CSc1nnc(Cc2ccccc2)n1-c1ccc(C)cc1)c1ccccc1	?	-19%	-19%	-13%	0%	-25%	-4.6%	-3%
CCn1c2ccccc2c2nc3cc(S(=O)(=O)N4CCOCC4)ccc3nc21	?	-26%	?	-59%	-8%	?	-15%	-14%
O=C(c1nc2ccccn2c1CNCC1OCCc2ccccc21)N1CCOCC1 (stereo unspecified)	.	-21%	?	3%	0%	5%	.	-14%
Cc1ccc(NC(=O)c2ccc3oc(=O)c(S(=O)(=O)c4ccccc4)cc3c2)cc1C	-10%	28µM*	0%[46.1 µM]	.	.	18%[46.1 µM]	-1.5%	.
COc1cccc(CNCc2ccccc2Br)c1OC	.	-2%	7%	-8%	2%	12%	.	-5%
O=C(Cn1c(=O)n(Cc2ccc(C(=O)NCc3ccccc3Cl)cc2)c(=O)c2ccccc21)Nc1ccc(F)cc1	13µM*	3%	16%[46.1 µM]	.	.	15%[46.1 µM]	-1.7%	.
CCc1ccc(S(=O)(=O)N2CCN(C(=O)c3cccnc3)CC2)cc1	.	-23%	.	0%	-1%	.	.	2%
COc1ccccc1CN1CC(C(=O)N2CCC(C(=O)c3ccccc3)CC2)CCC1=O (stereo unspecified)	.	23%	.	-19%	-1%	.	.	1%
COc1cc(/C=N/Nc2nncn2/N=C/c2ccc(O)c(OC)c2)ccc1O	.	-21%	?	.	-3%	4%[46.1 µM]	.	-20%
C=CCC(NC(C)c1ccccc1)c1ccco1 (stereo unspecified)	-3%	18%	-1%	13%	0%	22%	-2.2%	14%
CCOc1ccc(N2C(=O)CC(n3nc(C)cc3C)C2=O)cc1 (stereo unspecified)	27%	-9%	6%	2%	-23%	-4%	1.9%	-6%
CCCN(CC(=O)Nc1ccc(NC(C)=O)cc1)CC(=O)Nc1ccc(F)c(F)c1F	.	-21%	-17%[46.1 µM]	-2%	2%	-19%[46.1 µM]	.	0%
O=C(Nc1ccccc1N1CCCC1)c1cc(=O)[nH]c2ccccc12	.	-28%	17%	.	0%	0%	.	3%
CC1=C(C)CC(C(=O)NCCc2ccccc2)C(C(=O)O)C1 (stereo unspecified)	8%	22%	8%	5%	0%	0%	3.3%	-4%
Cc1ccc(C(C(=O)NC2CCCC2)N(C(=O)Cc2cccs2)c2ccc3c(c2)OCCO3)cc1 (stereo unspecified)	4%	.	?	0%	3%	?	-1.7%	1%
CCNC(=O)COc1cccc(C(=O)NCc2ccccc2)c1	-7%	-15%	?	-5%	14%	15%	0.9%	8%
COc1ccc(-n2c(SCCC(=O)O)nnc2-c2ccncc2)cc1	6%	-10%	2%	?	9%	1%	-0.4%	-2%
CCCS(=O)(=O)NCCc1sc2nc(-c3ccc(Cl)cc3)nn2c1C	16%	-16%	.	.	.	?	-3.6%	.
CCN(C(=O)CCS(=O)(=O)c1ccc(Br)cc1)c1ccc2c(c1)OCO2	-6%	-23%	10%	-15%	2%	5%	1.5%	-6%
O=C(CN1C(=O)c2cccc3cccc(c23)C1=O)N1CCN(Cc2ccc3c(c2)OCO3)CC1	-27%	?	-8%	0%	10%	-7%	-6.1%	-2%
O=C(Nc1ccccc1C(=O)NCc1ccccc1)c1ccccc1Br	-11%	2%	?	-45%	-16%	2%	-3.5%	32%
CC(=O)N1CC(C)Sc2ccc(S(=O)(=O)N3CCCCC3)cc21 (stereo unspecified)	.	-6%	13%[46.1 µM]	5%	2%	-26%[46.1 µM]	.	-2%
CC(Sc1nnc(Cn2c(=O)sc3ccccc32)n1C)c1ccccc1 (stereo unspecified)	4%	-2%	.	-2%	12%	.	-2.0%	13%
CC(=O)c1ccccc1OCCOc1ccccc1C(C)=O	.	-17%	.	1%	-2%	.	.	-8%
COc1ccc(F)c(CN2CCCC(CNS(=O)(=O)c3cccc4cccnc34)C2)c1 (stereo unspecified)	.	9%	?	6%	?	?	.	-20%
CC1=NN(c2ccccc2)C(=O)/C1=C\C=C1\N(C)c2ccccc2C1(C)C	-8%	?	8%	1%	-72%	4%	-20%	8%
COc1ccc(OC(C)c2nc3ccccc3[nH]2)cc1 (stereo unspecified)	11%	2%	?	.	.	-28%[46.1 µM]	-7.3%	.
CCOC(=O)CC1C(=O)NCCN1C(=O)COc1ccc(C(C)(C)C)cc1 (stereo unspecified)	.	-9%	3%	-7%	3%	-12%	.	6%
C=CCSc1nc2c(c(=O)[nH]1)C(c1ccccc1)C(C#N)=C(N)O2 (stereo unspecified)	.	-7%	.	1%	-1%	.	.	7%
CCOC(=O)N1CCC(NC(=O)c2ccc3c(c2)N=C(C)c2ccccc2S3)CC1	.	?	.	4%	-6%	.	.	7%
CC1CCCCN1C(=O)COc1ccccc1F (stereo unspecified)	.	8%	1%[46.1 µM]	-1%	-1%	20%	.	5%
Cc1c(Cl)cccc1-n1c(SCC(=O)N2CCC(C(=O)O)CC2)nc2ccccc2c1=O	.	6%	6%[46.1 µM]	10%	1%	.	.	2%
CCOC(=O)c1ccc(NC(=O)CCC(=O)N2CCSc3ccccc32)cc1	-12%	-9%	.	.	.	-22%[46.1 µM]	-8.2%	.
CC(N)C12CC3CC(C1)CC(C(C)N)(C3)C2 (stereo unspecified)	-5%	-18%	?	4%	1%	9%	2.9%	-7%
COc1ccc(NC(=O)CSc2nc(N)c(-c3ccccc3)c(=O)[nH]2)cc1	-8%	.	-5%	6%	1%	-22%	0.7%	-5%
CC1=C(C(N)=O)C(c2cccc(C)c2)n2nc(-c3ccc(Cl)cc3)nc2N1 (stereo unspecified)	-4%	-5%	.	.	.	1%[46.1 µM]	-2.9%	.
